# Screening results (PubChem BioAssay)
# CSC inhib – cancer stem cell inhibition | cancer stem cell-like cells viability, luminescence | inhibition, % at 7.5 µM | hit rate 1.1% among 300,000 | AID 2717;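 active = mean at 75% or more and at least half the replicates too; inconclusive = mean and replicates disagree; tested in HMLE shEcad cells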;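 note: 0% = median of negative and 100% = median of positive control wells; the first replicate is given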
# PABP polyA inh – PABP-poly(A) binding inhibition; PABP-poly(A) RNA binding, fluorescence polarization; inhibition, % at 35 µM; hit rate 1% among 290,000; AID 2014;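 active = 50% or more with normal probe brightness, or confirmed in later tests; inconclusive = above 50% with abnormal brightness, or retests that disagree; inactive = below 50% or failed in later tests; about a fifth of its hits are not listed in these tables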;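 note: calls also rest on retests at 20 µM and on dose response follow-up; controls were probe without protein and protein plus probe with vehicle; some compounds called inactive have numbers as strong as hits; many hits fall short of the cut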
# Target sequence (P11940 whole entry, looked up): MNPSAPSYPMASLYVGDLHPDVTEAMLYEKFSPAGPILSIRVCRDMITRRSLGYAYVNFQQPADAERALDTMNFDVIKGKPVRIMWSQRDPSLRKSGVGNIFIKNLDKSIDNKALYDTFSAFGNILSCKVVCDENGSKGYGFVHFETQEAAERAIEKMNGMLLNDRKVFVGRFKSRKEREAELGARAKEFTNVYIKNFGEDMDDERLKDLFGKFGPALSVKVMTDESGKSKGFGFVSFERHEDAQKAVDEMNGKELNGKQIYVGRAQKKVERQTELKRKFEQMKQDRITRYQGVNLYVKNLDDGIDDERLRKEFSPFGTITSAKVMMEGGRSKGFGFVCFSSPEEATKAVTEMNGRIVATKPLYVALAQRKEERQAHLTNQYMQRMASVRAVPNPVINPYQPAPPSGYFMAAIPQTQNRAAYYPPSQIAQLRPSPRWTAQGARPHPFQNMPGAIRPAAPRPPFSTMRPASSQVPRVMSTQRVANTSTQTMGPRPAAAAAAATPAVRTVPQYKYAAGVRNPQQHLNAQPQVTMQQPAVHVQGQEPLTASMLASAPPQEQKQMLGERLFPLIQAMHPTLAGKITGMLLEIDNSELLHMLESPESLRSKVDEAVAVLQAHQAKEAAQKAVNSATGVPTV
# eIF4H FP inh – inhibitors of RNA binding by human eIF4H. eIF4H fluorescence polarization binding assay. inhibition, % at 35 µM. hit rate 0.94% among 290,000. AID 2012;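 active = 50% or more with normal probe brightness, or confirmed in later tests; inconclusive = above 50% with abnormal brightness, or retests that disagree; inactive = below 50% or failed in later tests; about a fifth of its hits are not listed in these tables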;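 note: calls also rest on retests at 20 µM and on dose response follow-up; 0% = protein and probe with vehicle and 100% = probe without protein; strong numbers were not always called active; many hits fall short of the cut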
# UUG fidelity – alters start codon recognition fidelity in yeast. S. cerevisiae UUG-firefly luciferase reporter, luminescence/redox ratio. activity score, % at 18.7 µM. hit rate 0.13% among 350,000;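 active = replicate mean at a twofold rise or more, about +100% in these data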;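 note: firefly luciferase made from a UUG start codon reports start codon fidelity; reporter light over untreated wells divided by growth signal over untreated wells; some hits fall short of that in this replicate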
# MT1-MMP act inh – inhibitors of human MT1-MMP activation | hit rate 0.061% among 360,000 | P50281 | GFP/RFP ratio change, % at 20 µM | AID 651647 | HT1080 RFP-PRO-GFP cells, GFP/RFP ratio fluorescence, overnight; percent of plate control window, DMSO zero;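 active = GFP/RFP ratio change of at least 30% with cell ATP level not reduced by more than half and red fluorescence within 50% of control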; note: strong numbers were not always called active
#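 Test system: HT1080 RFP-PRO-GFP cells; Benchmarks: DMSO and RFP-L50D-GFP cell wells; Timing: cells overnight before dosing, compound overnight, 37 °C, 5% CO2; Compound: one 20 µM compound dose with 1% DMSO; Read-out: GFP/RFP fluorescence ratio.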
# Rce1 inhib – inhibitors of yeast Ras-converting enzyme; Q03530; yeast membranes, quenched prenylated peptide cleavage fluorescence; calls only; hit rate 0.27% among 290,000; AID 2563;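 active = fall in fluorescence gain of 50% or more versus controls, with final raw signal at or below 3038400; inconclusive = same 50% fall but final raw signal above 3038400; inactive = fall in fluorescence gain under 50%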;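 note: plate controls were neutral control wells for no effect and wells lacking membranes for full effect; tested at 10 µM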
# Target sequence (Q03530 whole entry, looked up): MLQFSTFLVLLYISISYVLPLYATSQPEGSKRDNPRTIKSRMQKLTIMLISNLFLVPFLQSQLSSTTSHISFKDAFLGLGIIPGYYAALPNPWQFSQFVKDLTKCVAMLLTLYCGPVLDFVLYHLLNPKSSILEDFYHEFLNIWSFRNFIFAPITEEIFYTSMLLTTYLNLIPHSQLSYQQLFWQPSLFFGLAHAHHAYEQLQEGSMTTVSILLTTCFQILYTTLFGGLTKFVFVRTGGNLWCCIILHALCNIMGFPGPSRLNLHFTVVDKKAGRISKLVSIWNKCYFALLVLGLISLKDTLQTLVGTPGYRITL
# HIV Env fusion – blocks HIV Env-driven cell-cell fusion; AID 651610; HeLa-JRFL Env/CEM21 cell fusion, luciferase; hit rate 1.1% among 360,000; inhibition, % at 12.3 µM;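 active = mean replicate inhibition score of at least 50 and every replicate individually at or above 50; inconclusive = only one of the two criteria met; inactive = mean below 50 and not all replicates reaching 50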;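 note: 0% = plate neutral controls and 100% = maraviroc near 300 nM; one replicate is shown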
# eIF4H FP inh retest – also measured in eIF4H FP inh; calls as there; inhibition, %; compound at 20 µM; confirmation average;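 mean of two retest wells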
# PABP polyA inh retest – second read-out of PABP polyA inh, no call of its own (marks repeat the call); inhibition, %; compound at 20 µM; confirmation repeats;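 mean of two retest wells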
# MT1-MMP act inh RFP – further read-out of MT1-MMP act inh, marked with its call; RFP signal change, %; measured here: RFP expression control read;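 0 = vehicle wells; hits needed this value within 50% of zero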
# * marks the source's active call; other numbers are inactive results; i = inactive; ? = inconclusive; nt = not tested or not shown; + = active, no number.
SMILES,CSC inhib,PABP polyA inh,eIF4H FP inh,UUG fidelity,MT1-MMP act inh,MT1-MMP act inh RFP,Rce1 inhib,HIV Env fusion,others
Cc1ccc(-c2nc(N/N=C/c3cccc([N+](=O)[O-])c3)c3ccccc3n2)cc1,62.0,-12.4,-3.9,-14.3,-9.0,-8.8,nt,-40.6,
CCC(Oc1ccccc1)C(=O)Nc1ccc(S(=O)(=O)Nc2cnc3ccccc3n2)cc1 (stereo not drawn),nt,-3.2,-2.7,-22.1,5.0,0.5,i,nt,
N#Cc1cccc(NC(=O)COC(=O)C2CCC2)c1,-7.1,nt,nt,-10.5,-1.4,3.7,i,-11.6,
Cc1nc(N2CCN(C(=O)c3cccs3)CC2)c2c3c(sc2n1)CCCC3,nt,3.0,0.4,-4.4,-5.7,-8.7,i,nt,
COC(=O)c1sccc1NC(=O)c1ccoc1C,-11.7,8.7,-5.7,-13.5,0.8,0.4,i,nt,
CC1(c2ccccc2)C(C#N)C(=O)NC(=O)C1C#N (stereo not drawn),nt,nt,nt,-6.4,0.5,1.4,nt,-5.3,
O=C(CN1C(=O)CSc2cc(S(=O)(=O)N3CCCCCC3)ccc21)NCCc1ccccc1,-15.5,-6.4,2.0,-9.7,3.9,-7.6,i,nt,
COC(=O)c1sc(NC(=O)c2ccncc2)nc1C,-10.4,-4.8,-2.9,-18.2,-0.8,-2.5,i,-16.5,
COc1ccc(Nc2oc(-c3ccc(Cl)cc3)nc2C#N)cc1,59.9,-7.1,2.4,-18.3,6.6,-20.0,i,-199.2,
CC1(C)CC(CC(=O)Nc2nccs2)(c2ccccc2)CCO1 (stereo not drawn),-16.3,7.3,2.4,-21.0,-0.6,3.4,i,nt,
O=C(C1CCC1)N1CCN(S(=O)(=O)c2ccccc2)CC1,4.4,nt,nt,12.3,3.4,4.4,i,-9.2,
CC1(C#N)c2ccccc2C(Br)=CN1C(=O)c1ccccc1 (stereo not drawn),49.2,nt,nt,-0.3,-2.4,0.8,i,2.1,
CCOc1ccc(-c2n[nH]c(C)c2Oc2ccccc2OC)c(O)c1,8.5,-6.3,-3.0,-13.6,6.5,1.4,i,-5.9,
CC(=O)c1ccc(NC(=O)C2CCN(S(=O)(=O)c3cccc4nonc34)CC2)cc1,-1.6,-6.7,3.2,-9.6,2.0,3.2,nt,-5.7,
CCCCSc1nnc(-c2ccccc2N)c(=O)[nH]1,4.0,12.3,-1.0,-13.1,3.2,-4.2,i,nt,
C/C=C\C=C/C(=O)Nc1cccc(C2=NOC3(C2)C[C@H](C(N)=O)N(C(=O)c2ccc(OC)cc2)C3)c1 (stereo partly drawn),-26.1,-10.7,4.3,-2.5,-3.4,3.6,i,8.5,
CCOc1ccc(NC(=O)CN2CCN(C3c4ccccc4-c4ccccc43)CC2)cc1,51.3,18.3,-2.7,-18.1,-1.3,-0.5,i,-67.1,
CCOC(=O)C1=C(CC)Nc2ccccc2N/C1=N\S(=O)(=O)c1ccccc1OC,-3.7,nt,nt,13.3,0.2,-1.2,nt,nt,
CC(NCC(=O)NC(=O)NCCC1=CCCCC1)c1ccc(S(N)(=O)=O)cc1 (stereo not drawn),nt,nt,nt,-1.5,2.9,-0.8,nt,7.5,
O=C(Oc1ccc2ccccc2c1)C1CCC1,nt,3.1,-2.7,-12.9,1.3,-1.3,i,-7.3,
O=S(=O)(Nc1ccc2c(c1)OCCO2)c1cccs1,-7.9,1.9,-5.3,-43.4,-1.8,0.5,i,nt,
CCC1CCCCN1CCCNC(=O)C1CCN(c2ncnc3c2nc2n3CCCCC2)CC1 (stereo not drawn),-10.7,0.5,-7.5,-13.3,-0.5,2.2,i,8.0,
COc1ccc(NC(=O)Nc2c(O)ccc3ccccc23)cc1,16.6,nt,nt,nt,6.2,8.7,i,8.4,
O=C1CN(S(=O)(=O)c2cccc(C(=O)O)c2)c2ccccc2N1,8.0,8.2,9.9,nt,-2.0,0.5,i,-9.7,
Clc1ccc(C2CC(c3cccs3)n3ncnc3N2)cc1 (stereo not drawn),20.8,-1.9,-7.9,-20.8,-1.6,-1.2,i,38.5,
N#C/C=C(/N)N1CCN(c2ccc(Cl)c(Cl)c2)CC1,21.3,-7.9,-16.6,nt,0.4,1.4,i,nt,
CCN(C(=O)CSc1n[nH]c(-c2cc(Cl)ccc2OC)n1)C1CCS(=O)(=O)C1 (stereo not drawn),nt,nt,nt,-0.7,0.4,-0.1,nt,15.3,
Cc1ccccc1-c1nnc(-c2cccc3ccccc23)o1,nt,nt,nt,-6.6,-5.3,-1.5,nt,-206.6,
Cc1ccc(C(=O)O)c(C(=O)Nc2nc(C)cs2)c1,-4.2,2.2,-4.6,-12.9,9.4,2.2,i,21.1,
C=CCOc1ccc(C2NC(=S)NC(c3ccccc3)=C2C(C)=O)cc1OC (stereo not drawn),-11.0,-7.3,-9.4,nt,1.6,0.8,i,-1.2,
Cn1nnnc1SCC(=O)N1CCCc2ccccc21,-5.0,-3.6,10.5,-20.6,14.6,-2.4,i,-62.7,
O=C(NCCc1ccccn1)c1ccc(S(=O)(=O)N2CCCCCC2)cc1,-16.6,16.9,0.0,-1.5,-4.2,-0.1,i,8.9,
CN(C)c1cccc2c(C=C(C#N)C#N)ccc(N(C)C)c12,-7.2,-5.1,?,-19.9,4.3,16.2,i,-87.7,
COc1ccccc1CCNS(=O)(=O)CCNC(=O)c1ccccc1,4.9,nt,nt,-13.0,2.3,0.9,i,nt,
O=C1C=C(O)CC(c2ccco2)C1 (stereo not drawn),7.3,76.8*,104.2*,-24.1,-4.4,0.0,nt,nt,
COc1ccc(-c2nc(CS(=O)(=O)CC(=O)NC3CCC(C)CC3)c(C)o2)cc1 (stereo not drawn),-8.8,-3.7,-11.3,-7.5,0.4,-6.7,i,11.2,
CC(=O)Nc1ccc(S(=O)(=O)N(C)CC(=O)OCC(=O)N2CC(C)OC(C)C2)cc1 (stereo not drawn),0.7,nt,nt,nt,0.9,-0.7,i,-3.7,
COc1cc(NS(=O)(=O)c2ccc(NC(=S)NC(=O)c3ccc(Br)cc3)cc2)ncn1,0.2,nt,nt,-13.9,3.9,-3.2,i,-3.2,
COc1ccc(C(=O)Nc2ccc(Cn3ccnc3)cc2)cc1OC,5.0,-2.3,2.1,-18.7,0.9,-0.4,i,-3.3,
COc1ccc(CNC(=O)c2cc(=O)c3cc(C)c(C)cc3o2)cc1,-13.8,-0.3,-20.6,-15.5,-1.3,-1.0,i,6.0,
CCCC(=O)Nc1sc(C)c(-c2ccc(C(C)CC)cc2)c1C#N (stereo not drawn),-7.1,-10.9,-8.1,-6.8,8.3,1.6,i,nt,
CCc1nc2ccccc2c(=O)n1NC(=O)c1c(O)c2ccccc2[nH]c1=O,-7.1,17.4,-2.1,-4.5,5.9,1.6,i,-8.7,
COC(=O)c1ccccc1NC(=O)CN1CCN(Cc2ccccc2)CC1,2.9,-9.2,2.0,7.0,-3.0,-0.5,i,5.5,
Nc1ncc([N+](=O)[O-])c(Oc2ccccc2F)n1,-5.2,10.6,-3.8,-5.6,-9.2,3.5,i,12.5,
CCOc1ccccc1N(C(=O)Nc1ccc(Cl)cc1)C1=NCCS1,83.8*,0.7,-0.4,2.1,-1.9,-0.3,i,-22.8,

# Pulled by structure from the list above (2):
SMILES,CSC inhib,PABP polyA inh,eIF4H FP inh,UUG fidelity,MT1-MMP act inh,MT1-MMP act inh RFP,Rce1 inhib,HIV Env fusion,others
CC1(C)CC(CC(=O)Nc2nccs2)(c2ccccc2)CCO1 (stereo not drawn),-16.3,7.3,2.4,-21.0,-0.6,3.4,i,nt,
CC(=O)c1ccc(NC(=O)C2CCN(S(=O)(=O)c3cccc4nonc34)CC2)cc1,-1.6,-6.7,3.2,-9.6,2.0,3.2,nt,-5.7,

# The listing continues:
SMILES,CSC inhib,PABP polyA inh,eIF4H FP inh,UUG fidelity,MT1-MMP act inh,MT1-MMP act inh RFP,Rce1 inhib,HIV Env fusion,others
CC(C)(C)c1ccc(NC(=O)CCNC(=O)c2ccco2)cc1,-6.5,4.7,-0.1,12.5,-1.4,-1.1,i,-5.8,
Cc1ccc(NC(=O)CSc2nnnn2C2CCCC2)cc1S(=O)(=O)N1CCOCC1,nt,nt,nt,-9.7,4.6,-9.7,nt,-1.7,
COCc1nn2c(N)c(C#N)cnc2c1-c1ccccc1,-12.6,-10.9,-6.5,-14.1,-2.8,-1.0,i,nt,
O=C(CSc1ccc(Cl)cc1)c1ccco1,10.6,38.1*,87.4*,nt,-2.2,-1.2,i,nt,eIF4H FP inh retest=94.7*;PABP polyA inh retest=96.1*
Cc1ccc(C(=O)Nc2ccccc2-c2ccccc2)cc1S(=O)(=O)Nc1cccc(C)c1C,23.0,-0.3,-13.8,nt,-28.5,-23.2,i,14.3,
O=C(CN1C(=O)CSc2ccc(S(=O)(=O)N3CCOCC3)cc21)NCc1ccc(F)cc1,-10.4,nt,nt,-4.3,0.9,0.4,i,3.8,
O=C(CCNC(=O)c1ccccc1Cl)Nc1ccc2c(c1)OCO2,-11.6,10.1,8.7,-9.1,0.7,0.9,i,-47.9,
COc1ccccc1CC(=O)Nc1cccc2c1CCCC2,-14.7,2.3,-2.9,-9.6,2.7,3.0,i,-13.0,
Cc1cccc(CS(=O)(=O)Cc2ccc(C(=O)NCCc3ccccc3)o2)c1,-8.0,nt,nt,11.9,3.5,0.4,i,2.6,
C=CC[C@@H](CC(=O)N(CCO)Cc1ccccc1)C(=O)N[C@H](COC(=O)[C@H](CC=C)CC(=O)OC(C)(C)C)Cc1c[nH]c2ccccc12,nt,nt,nt,-9.5,-5.4,-9.3,nt,-176.1,
C/C(N)=C(/C#N)C(=O)CSc1nnnn1-c1ccc(C)cc1C,0.5,-3.5,-8.2,-6.3,-4.6,-15.6,i,38.1,
COc1ccc(Cl)cc1NC(=O)CN(C)S(=O)(=O)c1cccs1,-0.2,-6.3,1.3,-7.6,-1.8,0.5,nt,5.4,
CCOC(=O)c1c[nH]c2c3c(ccc2c1=O)CCCC3,-4.5,7.8,9.6,-11.2,3.2,-2.2,i,23.6,
Cc1c(NC(=O)CSc2ncccn2)c(=O)n(-c2ccccc2)n1C,nt,-4.1,-0.7,nt,0.3,4.8,i,6.1,
Cc1cc(F)cc(-c2cc(C(=O)NCc3ccc(C(F)(F)F)cc3)[nH]n2)c1,nt,nt,nt,-12.6,-1.5,3.2,nt,6.1,
OC(c1ccc(Cl)cc1)c1ncc(-c2cccc(F)c2)[nH]1 (stereo not drawn),nt,nt,nt,-3.8,0.9,-3.5,nt,0.7,
COc1cc(/C=C2\CCCc3c2nc2ccccc2c3C(=O)O)cc([N+](=O)[O-])c1O,-6.4,48.9*,79.5*,-12.7,9.9,-0.2,i,-5.6,eIF4H FP inh retest=81.1*;PABP polyA inh retest=63.4*
Cc1cc(NC(=O)c2oc3ccccc3c2C)ccc1-n1cnnn1,-8.6,-7.5,0.5,-6.9,5.8,-6.2,+,nt,
O=C(/C=C/c1cccs1)Nc1sc2c(c1C(=O)O)CCCC2,nt,18.7,-4.7,-0.9,0.6,0.2,i,-4.2,
NCCCN1CCOCC1,4.8,-6.5,-4.5,nt,-0.3,-2.6,nt,1.6,
